Screens from PubChem BioAssay.
MT1-MMP act inh = blockers of MT1-MMP proenzyme processing, primary screen, HT1080 RFP-PRO-GFP cells, GFP/RFP fluorescence. Matrix metalloproteinase-14 (Homo sapiens), P50281. GFP/RFP ratio fluorescence, overnight; percent of plate control window, DMSO zero. GFP/RFP ratio change, % at 20 µM. actives 0.061% (n = 360,000);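 active means GFP/RFP ratio change of at least 30% with cell ATP level not reduced by more than half and red fluorescence within 50% of control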; further: strong numbers were not always called active
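Assay system: HT1080 RFP-PRO-GFP cells | Dosing: 20 µM single dose, 1% DMSO | Incubation: Cells overnight before dosing, compound overnight, 37 °C, 5% CO2 | Evaluation: GFP/RFP fluorescence ratio | Control set: DMSO-only wells and HT1080 RFP-L50D-GFP cell wells as references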
CSC inhib = cancer stem cell viability inhibitors, primary screen, luminescence; cancer stem cell-like cells viability; inhibition, % at 7.5 µM; actives 1.1% (n = 300,000);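 active means mean at 75% or more and at least half the replicates too; inconclusive means mean and replicates disagree; tested in HMLE shEcad cells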;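 further: 0% = median of negative and 100% = median of positive control wells; the first replicate is given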
UUG fidelity = modulators of yeast start codon fidelity, primary screen, whole organism, S. cerevisiae, single point, plate reader; S. cerevisiae UUG-firefly luciferase reporter, luminescence/redox ratio; activity score, % at 18.7 µM; actives 0.13% (n = 350,000); AID 602363, 2012;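 active means replicate mean at a twofold rise or more, about +100% in these data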;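 further: firefly luciferase made from a UUG start codon reports start codon fidelity; reporter light over untreated wells divided by growth signal over untreated wells; some hits fall short of that in this replicate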
Rce1 inhib = yeast Rce1p protease inhibitors, primary screen, biochemical, fluorescence, cell-free homogeneous | CAAX prenyl protease 2 (Saccharomyces cerevisiae (strain ATCC 204508 / S288c)), Q03530 | yeast membranes, quenched prenylated peptide cleavage fluorescence | calls only | actives 0.27% (n = 290,000) | AID 2563, 2010;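 active means fall in fluorescence gain of 50% or more versus controls, with final raw signal at or below 3038400; inconclusive means same 50% fall but final raw signal above 3038400; inactive means fall in fluorescence gain under 50%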;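 further: plate controls were neutral control wells for no effect and wells lacking membranes for full effect; tested at 10 µM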
Target sequence (Q03530 whole entry, looked up): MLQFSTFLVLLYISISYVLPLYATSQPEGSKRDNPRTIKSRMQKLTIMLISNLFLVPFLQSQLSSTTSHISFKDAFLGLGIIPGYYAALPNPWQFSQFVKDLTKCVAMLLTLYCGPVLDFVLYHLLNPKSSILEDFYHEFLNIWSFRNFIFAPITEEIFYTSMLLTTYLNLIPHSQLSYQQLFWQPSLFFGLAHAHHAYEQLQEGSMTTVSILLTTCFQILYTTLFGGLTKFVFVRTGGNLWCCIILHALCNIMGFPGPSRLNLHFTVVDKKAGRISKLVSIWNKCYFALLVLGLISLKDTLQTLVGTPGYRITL
PABP polyA inh = PABP poly(A) RNA binding inhibitors, primary screen, biochemical, fluorescence polarization, uHTS. inhibition, % at 35 µM. actives 1% (n = 290,000). AID 2014, 2009;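 active means 50% or more with normal probe brightness, or confirmed in later tests; inconclusive means above 50% with abnormal brightness, or retests that disagree; inactive means below 50% or failed in later tests; about a fifth of its hits are not listed in these tables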;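 further: calls also rest on retests at 20 µM and on dose response follow-up; controls were probe without protein and protein plus probe with vehicle; some compounds called inactive have numbers as strong as hits; many hits fall short of the cut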
Target sequence (P11940 whole entry, looked up): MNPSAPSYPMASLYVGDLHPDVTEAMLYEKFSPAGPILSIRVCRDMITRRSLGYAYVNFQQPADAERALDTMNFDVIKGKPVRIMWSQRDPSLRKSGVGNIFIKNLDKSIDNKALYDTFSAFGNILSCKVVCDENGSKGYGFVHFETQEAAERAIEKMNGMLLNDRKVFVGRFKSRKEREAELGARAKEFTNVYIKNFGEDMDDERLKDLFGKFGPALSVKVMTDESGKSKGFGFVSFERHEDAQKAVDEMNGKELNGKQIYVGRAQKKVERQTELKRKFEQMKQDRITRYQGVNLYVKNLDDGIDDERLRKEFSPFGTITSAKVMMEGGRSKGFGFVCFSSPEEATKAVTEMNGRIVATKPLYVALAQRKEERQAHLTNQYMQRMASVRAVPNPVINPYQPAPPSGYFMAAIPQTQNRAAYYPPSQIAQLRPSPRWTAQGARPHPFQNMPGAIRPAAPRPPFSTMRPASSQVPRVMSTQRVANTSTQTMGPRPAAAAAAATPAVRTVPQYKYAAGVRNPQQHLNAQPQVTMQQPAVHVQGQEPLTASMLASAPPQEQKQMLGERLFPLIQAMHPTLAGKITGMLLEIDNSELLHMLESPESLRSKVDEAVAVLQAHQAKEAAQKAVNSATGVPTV
HIV Env fusion = inhibitors of HIV-1 Env-driven cell-cell fusion, primary screen, HeLa-JRFL effector, CEM21 target cells, luciferase; inhibition, % at 12.3 µM; actives 1.1% (n = 360,000); AID 651610, 2012;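 active means mean replicate inhibition score of at least 50 and every replicate individually at or above 50; inconclusive means only one of the two criteria met; inactive means mean below 50 and not all replicates reaching 50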;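 further: 0% = plate neutral controls and 100% = maraviroc near 300 nM; one replicate is shown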
eIF4H FP inh = human eIF4H binding inhibitors, primary screen, translation initiation inhibitor project, biochemical, uHTS, fluorescence polarization; Eukaryotic translation initiation factor 4H (Homo sapiens), Q15056; actives 0.94% (n = 290,000); inhibition, % at 35 µM; eIF4H fluorescence polarization binding assay;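 active means 50% or more with normal probe brightness, or confirmed in later tests; inconclusive means above 50% with abnormal brightness, or retests that disagree; inactive means below 50% or failed in later tests; about a fifth of its hits are not listed in these tables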;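 further: calls also rest on retests at 20 µM and on dose response follow-up; 0% = protein and probe with vehicle and 100% = probe without protein; strong numbers were not always called active; many hits fall short of the cut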
MT1-MMP act inh RFP = second read-out of MT1-MMP act inh, no call of its own (marks repeat the call); RFP signal change, %; measured here: RFP expression control read;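 0 = vehicle wells; hits needed this value within 50% of zero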
Active calls of the source: *; i = inactive; ? = inconclusive; / = not tested or not shown; & = joins results of further samples. Not all compounds are listed (hit frequency here may not be typical).

item	Structure	MT1-MMP act inh	MT1-MMP act inh RFP	CSC inhib	UUG fidelity	Rce1 inhib	PABP polyA inh	HIV Env fusion	eIF4H FP inh
1	CCN(CC)S(=O)(=O)c1ccc(C(=O)N2CCN(C3=NS(=O)(=O)c4ccccc43)CC2)cc1	-9	-1	3	-7	i	7	/	0
2	Cc1cc2nc(C3CCCCC3)c(Cc3cccc(F)c3)n2c(C)c1Br	-4	-8	/	-11	/	/	11	/
3	COc1cc(C(C(=O)NC(C)(C)C)N(C(=O)CNC(=O)c2cccs2)c2ccccc2)cc(OC)c1OC (stereo unspecified)	-2	1	12	-9	i	-2	-73	-10
4	CCOC(=O)C1=CCN(S(=O)(=O)c2cccc(Cl)c2)C1c1cccc(C)c1 (stereo unspecified)	-2	-6	/	-16	/	/	18	/
5	NC(=O)c1ccccc1N/C=C/C(=O)c1ccco1	-11	7	-7	/	i	18	/	18
6	NC(=O)C[C@@H]1NC(=O)CNC(=O)c2cc([N+](=O)[O-])cc(I)c2NCCC(C(N)=O)NC1=O (stereo partly specified)	-1	0	-7	-23	i	7	-7	3
7	CCN(CC)CCN1C2=C(C(=O)CC(C)(C)C2)C(c2cccc(F)c2)C2=C1CC(C)(C)CC2=O	-5	-2	-1	/	i	-8	-1	-14
8	COc1ccc(N(C)S(=O)(=O)c2ccc(C)cc2)c([N+](=O)[O-])c1	5	1	-1	/	/	1	-1	7
9	Cc1nnc(SCc2cc(=O)oc3cc(O)ccc23)n1Cc1ccccc1	-5	1	7	-3	i	-1	-1	6
10	Cc1ccc(NS(=O)(=O)c2cccc(C(=O)NC3CCN(Cc4ccccc4)CC3)c2)cc1	3	-18	/	-15	/	/	10	/
11	COC(=O)c1c(NC(=O)c2nc3ccccc3s2)sc2c1CCN(C(C)=O)C2	-6	-1	3	2	/	0	/	-4
12	CCNC(=S)N(CCCO)Cc1cc2cc3c(cc2[nH]c1=O)OCCO3	-2	3	-6	-29	i	11	5	-4
13	COCc1c(C(=O)OCC(=O)NCc2ccco2)oc2ccccc12	-2	1	-11	-7	/	/	-7	/
14	Cn1c(SCC(=O)Nc2ccccc2)nnc1C(F)(F)F	0	4	13	/	/	-5	-13	0
15	CCOc1ccc2c(c1)sc(N)[n+]2Cc1cc(C)cc2cccnc12	-5	-17	-6	-28	i	0	15	-6

From no. 13 up to 15, copied from above:
item	Structure	MT1-MMP act inh	MT1-MMP act inh RFP	CSC inhib	UUG fidelity	Rce1 inhib	PABP polyA inh	HIV Env fusion	eIF4H FP inh
13	COCc1c(C(=O)OCC(=O)NCc2ccco2)oc2ccccc12	-2	1	-11	-7	/	/	-7	/
14	Cn1c(SCC(=O)Nc2ccccc2)nnc1C(F)(F)F	0	4	13	/	/	-5	-13	0
15	CCOc1ccc2c(c1)sc(N)[n+]2Cc1cc(C)cc2cccnc12	-5	-17	-6	-28	i	0	15	-6

Next part.
item	Structure	MT1-MMP act inh	MT1-MMP act inh RFP	CSC inhib	UUG fidelity	Rce1 inhib	PABP polyA inh	HIV Env fusion	eIF4H FP inh
16	CC(=O)NCC(=O)NNC1CC(=O)N(c2cccc(Cl)c2)C1=O (stereo unspecified)	5	-2	-7	/	i	7	4	0
17	COc1ccc(Cl)cc1NC(=O)N1CCN(c2ccccc2OC)CC1	-4	-2	18	-2	i	3	3	1
18	CCOc1ccc2[nH]cc(C(=O)NCCc3ccccc3)c(=O)c2c1	1	-21	22	8	i	-11	?	-3
19	O=C(NCC1CCCO1)c1ccccc1OCc1ccc(Cl)cc1 (stereo unspecified)	-3	-6	-11	4	i	/	/	/
20	Cn1nccc1NC(=O)Nc1ccccc1	-2	3	/	-17	i	-4	/	-11
21	CC1CCN(C(=O)c2[nH]cnc2C(=O)N2CCN(c3ccccc3)CC2)CC1	1	3	-12	-19	/	/	19	/
22	COc1ccccc1C(=O)NCCN1CCCC1	1	6	/	-8	/	/	10	/
23	CC(C)CN1CCN(Cc2cccn2-c2cccnc2)CC1CCO (stereo unspecified)	-2	5	-6	/	i	2	5	18
24	Cc1[nH]c(=O)c(S(=O)(=O)c2ccccc2)c(C)c1Cl	2	4	-1	-19	i	-7	5	-3
25	Cc1cc(Cl)ccc1NC(=O)CN1C(=O)NC2(CCCc3ccccc32)C1=O (stereo unspecified)	3	2	/	/	i	/	-3	/
26	Cc1nnc(NN)n(N)c1=O	-1	3	-19	-34	i	-3	1	-11
27	O=C(CCC(=O)Nc1ccccc1)N/N=C/c1cccnc1	-1	2	-2	-6	i	3	0	5
28	CC(C)c1ccc(-c2csc3ncnc(N4CCN(C)CC4)c23)cc1	-19	-11	9	-7	i	-4	37	2
29	OCC1(Cc2ccccc2)CCCN(Cc2cnn(-c3ccccc3)c2)C1 (stereo unspecified)	-1	-3	-6	-8	i	6	3	-14
30	CCCCn1c(=NC(=O)c2ccco2)c(C(=O)OCC)cc2c(=O)n3cccc(C)c3nc21	8	-3	9	/	i	10	13	16
31	C/C(N)=C(/C#N)C(=O)CSc1nnc(Nc2ccccc2)s1	-1	0	7	/	i	5	-40	-2
32	COc1ccc(NC(=O)CCNS(=O)(=O)c2ccc3c(c2)CC(C)N3C(C)=O)cc1 (stereo unspecified)	-1	-2	13	-16	i	9	-12	3
33	Cc1cccc(OCCCC(=O)NCC(=O)Nc2cccc(C)c2C)c1	0	1	-20	-5	i	-14	4	-7
34	C#CCOCCOCCOCCNc1nc(N2CCN(C(=O)C([C@@H](C)CC)n3cc(C(N)CC(C)C)nn3)CC2)nc(N2CCN(C(=O)[C@H](CCC(=O)O)n3cc(C(N)[C@H](C)CC)nn3)CC2)n1 (stereo partly specified)	-2	3	-3	4	i	6	-16	6
35	N#CC1=C(N)C(C#N)(C#N)C(c2ccc[nH]2)C2CCCC=C12 (stereo unspecified)	-126	3	-8	-17	i	?	/	?
36	COc1ccc(C(=O)NC2CCN(S(=O)(=O)c3ccccc3F)CC2)cc1	-2	-5	12	-8	i	4	-1	-2
37	COc1ccc(CN2CCNC(=O)C2CC(=O)NC2CCCC2)c(C)c1C (stereo unspecified)	0	2	-13	-1	i	0	3	-4
38	COc1ccccc1CCC(=O)NNC(=O)c1cccs1	1	5	-2	-13	/	/	10	/
39	NNC(=S)Nc1c(Br)cc(F)cc1Br	-2	1	11	/	i	-7	-4	19
40	COc1ccc2[nH]cc(CCNC(C)=O)c2c1	0	5	-4	-22	i	/	-8	/
41	N#C/C(=C\N1CCCCC1)S(=O)(=O)c1ccc(Cl)cc1	2	-2	-6	-8	i	-4	-9	-1
42	CC(C)N(C(=O)c1ccc(C(=O)Nc2ccc([N+](=O)[O-])cc2)cc1)C(C)C	3	4	2	9	i	-11	/	0
43	COc1cc(/C=N/n2nnnc2Nc2ccccc2)cc(OC)c1OC	9	-2	-2	-12	i	3	/	-7
44	COc1ccc(/C=C2\SC(=S)N(CC(=O)OCC(=O)Nc3ccc([N+](=O)[O-])cc3OC)C2=O)cc1	0	0	/	/	/	10	-10	-1
45	O=C(N/N=C/c1ccc(OCC(=O)N2CCCCC2)cc1)c1ccccc1	3	7	-7	-11	i	-5	15	1
46	O=C(O)/C=C/C(=O)Nc1ccccc1-c1ccccc1NC(=O)/C=C/C(=O)O	8	7	-4	6	i	13	/	4
47	O=S(=O)(NCCN1CCOCC1)c1cc(Cl)ccc1Cl	0	4	-3	-11	i	-12	-13	-1
48	Cc1n[nH]c(C)c1S(=O)(=O)N1CCN(c2ccccn2)CC1	5	7	-3	-12	i	-2	/	2
49	COc1ccc(CC(=O)NCC2(c3ccc(OC)c(OC)c3)CCOCC2)cc1	1	3	-15	-16&1	i	-14	/	-6
50	COc1ccc(Nc2nnc(SCC3CCCCO3)s2)cc1 (stereo unspecified)	5	1	9	-14	i	4	3	-5
51	CC(C)(CC(=O)O)CC(=O)N1CCN(c2nc3ccc(Cl)cc3s2)CC1	8	-7	-3	-17	i	-1	/	-5
52	COc1cccc(C(=O)/C=C/c2ccc(OCC#N)c(OC)c2)c1	-1	-19	0	-4	i	2	-25	7
53	CC(C)(C)Nc1c(N)c(=O)oc2ccccc12	4	8	-21	-8	i	1	-91	-3
54	CSc1ccc(Cn2c(C)c(C(=O)NCc3ccccc3C(F)(F)F)sc2=O)cc1	0	-5	/	-28	/	/	6	/
55	O=C(OC1CCOC1=O)c1cc(-c2ccccc2)nc2ccccc12 (stereo unspecified)	10	2	-1	-16	i	4	-48	3
56	O=C(Nc1ccc(N2CCOCC2)cc1)c1ccc(-c2ccccc2[N+](=O)[O-])o1	-3	-9	8	1	i	1	-7	-5
57	Cc1nn(Cc2c(F)c(F)c(F)c(F)c2F)c(C)c1NC(=O)c1cccc(COc2ccccc2Cl)c1	0	-7	10	-38	i	-8	-59	2
58	Cc1ccc(C(=O)Nc2ncc(Cc3ccc(F)cc3)s2)o1	-7	-8	120*	-19	i	-7	-146	-9
59	O=C(N1CCOCC1)N1CCC(c2nc(-c3ccc(S(=O)(=O)N4CCOCC4)cc3)no2)CC1	0	-2	-8	-9	i	-8	/	9
60	O=S(=O)(c1ccc(Cl)cc1)N1CCN(S(=O)(=O)N2CCCCCC2)CC1	1	3	-10	/	i	12	15	0
61	CC1(C)O[C@@H]2[C@H](O1)[C@@H](COS(=O)(=O)O)O[C@H]2n1cc(Br)c(=O)[nH]c1=O	4	3	-4	5	/	/	20	/
62	CCc1nc2ccc(C(=O)NCc3ccc(OC)cc3)cn2c1N(C)Cc1ccc(OC)cc1	-2	-4	/	-14	/	/	-15	/

Two compounds picked at random from the list so far:
item	Structure	MT1-MMP act inh	MT1-MMP act inh RFP	CSC inhib	UUG fidelity	Rce1 inhib	PABP polyA inh	HIV Env fusion	eIF4H FP inh
46	O=C(O)/C=C/C(=O)Nc1ccccc1-c1ccccc1NC(=O)/C=C/C(=O)O	8	7	-4	6	i	13	/	4
32	COc1ccc(NC(=O)CCNS(=O)(=O)c2ccc3c(c2)CC(C)N3C(C)=O)cc1 (stereo unspecified)	-1	-2	13	-16	i	9	-12	3
